Vif TR-FRET: HIV-1 Vif–A3G interaction blockers – biochemical, TR-FRET, GST-Vif 1-94, biotin-A3G peptide, dose response retest, primary screen (AID 1117319) | TR-FRET GST-Vif / biotin-A3G peptide binding; higher % means a stronger effect; test concentration not given here; strong numbers were not always called active | inhibition, %, or IC50 in µM where a hit was titrated | 260,000 compounds, 0.57% hits;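 active = above the screen mean plus three standard deviations and confirmed in dose response; inconclusive = results disagree or hit not tested in dose response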;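 note: Vif residues 1-94 fused to GST binding biotinylated APOBEC3G peptide 110-148; 0% = full assay without inhibitor and 100% = GST in place of GST-Vif; retest series ran down from 100 µM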
UCH37 inh: inhibitors of human deubiquitinating enzyme UCH37; AID 588478; purified proteasome/UCH37, Ub-AMC cleavage fluorescence; Q9Y5K5; inhibition, % (test concentration not listed); 330,000 compounds, 0.33% hits;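 active = mean of two replicates above 20%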;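 note: 0% = compound-free wells with enzyme and 100% = wells lacking proteasome; stock transfer was 100 nL into about 20 µL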
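Signal – fluorescence, ex 355 nm, em 460 nm · System – Proteasome-bound UCH37 · Input – 0.15 nM proteasome as dispensed · Timing – 30 min preincubation with enzyme, 25 min cleavage at room temperature · Read-out basis – percent inhibition of cleavage signal versus uninhibited and no-proteasome wells · Medium – Tris-HCl pH 7.4 with ATP-MgCl2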
LANA-H2A inh: blocks KSHV LANA binding to histone H2A/H2B; Q9QR71; cell-free LANA-H2A/H2B peptide, fluorescence polarization; inhibition, % (no concentration beside the values); 320,000 compounds, 0.6% hits; in the data active = inhibition mostly above about 10%, no sharp cut-off; inactive = mostly below about 6.7%;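 note: stock transfer was 7.5 nL into about 10 µL; 0% = median of vehicle wells and 100% = median of positive control wells; one replicate is shown; the record names a cut of 25% in any replicate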
Ecoli growth: inhibitors of Escherichia coli growth; OD600, 23 h; active compounds read low; 330,000 compounds, 0.21% hits; OD600 absorbance (test concentration not listed);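 active = OD600 absorbance below the run mean of sample wells minus 3.6 SD, in any replicate, cut at about 0.56 in these data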;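 note: stock transfer was 300 nL into about 60 µL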
A1 inh: inhibitors of the anti-apoptotic protein A1, read as caspase activation. 330,000 compounds, 0.066% hits. MEF A1-2A-BIM cells, Caspase-Glo 3/7 luminescence, 3 h; percent of clofoctol response, vehicle zero. AID 2462. caspase activation, % (concentration not given with the values);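 active = over half of replicate activation scores above 10%, or exactly half above 10 with the replicate mean above 10; inconclusive = replicate mean below 10 yet half the replicates above 10; inactive = over half of replicates below 10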;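 note: wells of about 30 µL received 50 nL stock; many hits fall short of the cut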
Beta2AR agonist: activates human beta-2 adrenergic receptor causing internalization; P07550; Am2.2-beta2AR cells, FAP receptor internalization, flow cytometry; reference of the scale not given here; response, % (no concentration beside the values); 340,000 compounds, 0.43% hits;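 active = response above a set limit, near 3 SD of response in nonfluorescent compounds, cut at about 42% in these data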;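 note: stock transfer was 100 nL into about 11 µL; a reference agonist was the positive control; negative values mostly stem from fluorescent compounds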
Target sequence (P07550 whole entry, looked up): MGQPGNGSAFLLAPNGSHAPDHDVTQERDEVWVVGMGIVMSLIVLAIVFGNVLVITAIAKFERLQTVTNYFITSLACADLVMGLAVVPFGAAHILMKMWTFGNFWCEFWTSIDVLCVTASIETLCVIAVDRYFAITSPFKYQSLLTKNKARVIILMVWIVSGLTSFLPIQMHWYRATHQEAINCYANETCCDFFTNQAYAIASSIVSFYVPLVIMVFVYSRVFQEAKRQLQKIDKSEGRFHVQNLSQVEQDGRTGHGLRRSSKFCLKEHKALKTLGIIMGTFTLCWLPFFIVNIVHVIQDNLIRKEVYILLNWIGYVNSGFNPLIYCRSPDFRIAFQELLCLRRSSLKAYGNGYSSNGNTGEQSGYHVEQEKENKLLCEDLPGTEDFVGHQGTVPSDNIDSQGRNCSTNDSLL
HNF4A DNA FP: change in binding of human HNF4 alpha to DNA. HNF4a-FITC DNA binding, fluorescence polarization, 1 h. activity change, % at 10 µM. 360,000 compounds, 0.3% hits; in the data active = activity change above about 30%, passing the limit was not always enough;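 note: controls were the assay level and a saturating level of protein; the project sought stronger binding though the title names inhibitors; some compounds called inactive have numbers as strong as hits; positive values seem to mean higher polarization but the record does not say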
Target sequence (P41235 whole entry, looked up): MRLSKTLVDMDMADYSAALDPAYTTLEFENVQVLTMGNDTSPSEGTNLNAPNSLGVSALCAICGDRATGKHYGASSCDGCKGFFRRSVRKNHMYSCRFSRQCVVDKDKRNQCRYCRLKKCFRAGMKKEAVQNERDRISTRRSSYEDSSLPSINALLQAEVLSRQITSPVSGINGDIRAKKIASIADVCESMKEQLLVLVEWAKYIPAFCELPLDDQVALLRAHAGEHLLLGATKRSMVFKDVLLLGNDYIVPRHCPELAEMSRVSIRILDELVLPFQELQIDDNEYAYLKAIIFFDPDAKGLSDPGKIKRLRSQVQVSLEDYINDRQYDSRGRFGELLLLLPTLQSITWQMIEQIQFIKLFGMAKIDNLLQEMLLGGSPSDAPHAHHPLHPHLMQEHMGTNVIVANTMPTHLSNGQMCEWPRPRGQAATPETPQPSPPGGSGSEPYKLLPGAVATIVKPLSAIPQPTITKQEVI
The depositor's hits bear a star; ? = inconclusive; · = no result given; & = joins results of further samples.

SMILES	Vif TR-FRET	UCH37 inh	LANA-H2A inh	Ecoli growth	A1 inh	Beta2AR agonist	HNF4A DNA FP
O=C(O)c1c2c(nc3ccccc13)/C(=C/c1ccccc1[N+](=O)[O-])CCC2	·	5.0	6.1	0.65	0.4	2	1.9
COc1cc(C2/C(=C(\O)c3ccc4c(c3)OCCO4)C(=O)C(=O)N2Cc2ccco2)cc(OC)c1OC (stereo not drawn)	·	14	-2.4	0.71	1.9	2	0.3
CN(C)CCSc1nnc2[nH]c3ccccc3c2n1	·	9.6	-5.6	0.67	0.9	-14	-1.5
COCC(=O)Nc1nnc(CCc2ccccc2)s1	7%	0.1	6.2	0.66	0.2	11	1.6
CCn1c(SCC(=O)Nc2nnc(C)s2)nnc1C(C)NC(=O)c1ccccc1 (stereo not drawn)	·	-0.1	-1.6	0.71	0.2	-1	0.3
CN(C)S(=O)(=O)Oc1cccc(C(=O)Nc2ccc(Cl)c(Cl)c2)c1	21%	6.0	-1.8	0.71	-3.2	19	-0.9
O=C(COc1ccc(Br)cc1F)NC1CCN(Cc2ccccc2)CC1	4%	1.4	1.4	0.69	-0.1	2	-1.0
CCC(C)N(C(=O)COC(=O)c1ccccc1SCC(=O)N1CCCC1)C1CCS(=O)(=O)C1 (stereo not drawn)	2%	1.6	-5.2	0.72	-0.3	-12	1.2
CCOC(=O)c1ccc(NC(=O)CCc2nc(-c3ccccc3Cl)no2)cc1	-2%	2.6	1.9	0.66	-0.8	-13	1.7
CCOC(=O)c1ccc(NC(=O)C(=O)NCc2ccc(/C=C(/C#N)C(=O)NCCOC)o2)cc1	-2%	-22	-0.4	0.7	-0.6	10	-9.3
Cc1ccc(S(=O)(=O)O/N=C2/CCCc3occc32)cc1	10%	·	3.4	·	2.9	6	-1.9
O=c1[nH]c2cccnc2n1Cc1ccco1	1%	3.9	-1.6	0.62	0.6	-19	2.5
Cc1ccccc1-c1cc2nc(C)c(Cl)c(=O)n2[nH]1	·	-2.5	-1.8	0.62	-0.5	6	-4.1
Cc1ccc(C(=O)N/C(=C\c2ccco2)C(=O)NC2CCS(=O)(=O)C2)cc1 (stereo not drawn)	·	5.5	-1.6	0.65	0.1	-2	5.1
CC(Sc1n[nH]c(N)n1)C(=O)Nc1ccccc1-c1ccccc1 (stereo not drawn)	-12%	3.8	5.3	0.66	?	-1	3.3
Nc1n[nH]c(-c2ccc(F)cc2)n1	3%	3.2	-2.0	0.66	-0.1	-4	2.8
CCC(C)C(NC(=O)c1ccccc1NC(=O)c1ccco1)C(=O)NNC(=O)c1ccc(OC)cc1 (stereo not drawn)	5%	-20	-5.7	0.7	0.3	10	1.4
O=C(Cn1ccccc1=O)NCc1ccc(F)cc1	21%	2.9	1.7	0.7	0.0	3	2.0
CCOC(=O)COC(=O)c1ccc(O)cc1	3%	1.8	1.7	0.7	-0.5	14	-3.7
Cc1ccc(NC(=O)c2cc(=O)c3ccccc3o2)cc1	3%	4.9	6.9	0.68	1.2	-4	-0.9

The final 6 compounds of the part before are carried over, then new ones follow.
SMILES	Vif TR-FRET	UCH37 inh	LANA-H2A inh	Ecoli growth	A1 inh	Beta2AR agonist	HNF4A DNA FP
CC(Sc1n[nH]c(N)n1)C(=O)Nc1ccccc1-c1ccccc1 (stereo not drawn)	-12%	3.8	5.3	0.66	?	-1	3.3
Nc1n[nH]c(-c2ccc(F)cc2)n1	3%	3.2	-2.0	0.66	-0.1	-4	2.8
CCC(C)C(NC(=O)c1ccccc1NC(=O)c1ccco1)C(=O)NNC(=O)c1ccc(OC)cc1 (stereo not drawn)	5%	-20	-5.7	0.7	0.3	10	1.4
O=C(Cn1ccccc1=O)NCc1ccc(F)cc1	21%	2.9	1.7	0.7	0.0	3	2.0
CCOC(=O)COC(=O)c1ccc(O)cc1	3%	1.8	1.7	0.7	-0.5	14	-3.7
Cc1ccc(NC(=O)c2cc(=O)c3ccccc3o2)cc1	3%	4.9	6.9	0.68	1.2	-4	-0.9
COC(=O)Nc1sc2c(c1C(N)=O)CCC(C)C2 (stereo not drawn)	-4%	2.2	-2.3	0.69	-0.4	-3	-0.7
CC(=O)Oc1ccc(N2C(=O)[C@@H]3[C@H](C2=O)[C@H]2c4ccccc4C=NN2[C@@H]3C(C)=O)cc1	11%	0.8	-2.1	0.61	-1.5	-10	3.5
COc1ccc(S(=O)(=O)NC2CCCCCC2)cc1C(N)=O	·	3.3	-0.5	0.7	1.4	-1	0.7
O=C(NCCO)/C(=C\c1cccs1)NC(=O)c1cccs1	·	3.9	-9.4	0.66	0.2	-3	0.5
CCN1CCN(c2ccc(Cl)cc2NC(=O)c2ccc(-n3nc(C)cc3C)cc2)CC1	5%	3.0	-4.0	0.67	-0.1	17	1.2
C/C(=N/Oc1nc(C)cc(C)n1)c1ccc(F)cc1	2%	·	-2.9	·	-0.4	3	5.8
CCn1cc(C(=O)N2CCN(c3ccc(OC)cc3)CC2)c2cc(OC)c(OC)cc2c1=O	3%	4.3	0.2	0.69	1.0	-9	1.7
O=C(CCCOc1ccc(Cl)cc1Cl)N1CCN(c2ccccn2)CC1	2%	1.6	0.8	0.66	1.0	-12	0.3
Cn1c2[n+](c3ccc(Cl)cc3c1=O)Cc1ccccc1-2	5%	-1.7	3.0	0.67	0.4	0	0.1
O=C1C=CN(Cc2ccccc2)C(c2ccccc2)C1 (stereo not drawn)	·	2.4	-2.2	0.68	0.2	2	-0.4
CCc1ccc(OCC(=O)NNC(=O)Cc2ccc(S(=O)(=O)N3CCOCC3)s2)cc1	-3%	1.1	-8.8	0.72	0.3	7	5.2
O=S(=O)(c1ccc(Oc2ccc(-c3nnco3)cc2)nc1)N1CCC(Cc2ccccc2)CC1	1%	-0.4	-2.6	0.71	-0.6	-3	-4.0
CCCS(=O)(=O)N1CCC(C(=O)NCCCN2CCCC2=O)CC1	0%	-3.2	4.4	0.74	0.6	5	-1.4
CS(=O)(=O)N1CCC(c2noc(-c3ccc(C(F)(F)F)cc3)n2)CC1	0%	-5.9	-4.1	0.7	1.8	6	-1.0
CCOc1ccc2nc(SCC(=O)N(C)C)[nH]c2c1	?	-0.3	-0.4	0.67	-1.1	-1	2.5
CC1CCCCC12NC(=O)N(CC(=O)Nc1sccc1C(N)=O)C2=O (stereo not drawn)	·	2.2	-0.9	0.67	0.7	5	4.0
O=C(O)CCC(=O)NNC(=O)c1cccs1	2%	4.5	2.1	0.7	-0.2	-6	-0.3
O=C(Nc1ccc(N2CCN(c3ccc(O)cc3)CC2)cc1)Oc1ccccc1	14%	3.7	-2.5	0.72	-0.2	-5	5.3
O=C(Nc1ccc([N+](=O)[O-])cc1)N1CCN(C(=O)C2CCCO2)CC1 (stereo not drawn)	-2%	5.1	0.1	0.7	-0.6	-5	-1.5
Oc1ccc(/C=C/c2ccc3cccc(O)c3n2)cc1Br	·	-1.3	-2.8	0.7	-12	-32	44*
Cc1nnc(SCC(=O)NCc2ccc(F)cc2)[nH]c1=O	-5%	-0.8	-3.0	0.71	-1.1	-16	-7.8
CCOc1ccc(NC(=O)CN(C)c2ccc(S(=O)(=O)N(C(C)C)C(C)C)cn2)cc1OCC	-5%&26%	2.0	-1.5	0.78	1.2	-6	0.3
O=C(NN1CCOCC1)c1ccc(F)cc1	-5%	4.8	4.3	0.74	-0.2	-3	1.5
CC(C)(C)C(=O)[C@H]1[C@H](c2ccccc2)[C@@]2(N=C(c3ccccc3)OC2=O)C2c3ccccc3C=NN21 (stereo partly drawn)	9%&-4%	1.9	-2.8	0.7	·	-10	-5.4
Cc1cccc2c1OCC/C2=N\NC(=O)COc1ccccc1	4%	·	-0.2	·	-1.8	-1	3.2
COc1ccc(-c2ccc([C@H]3[C@@H]4C=CCC[C@@]4(C)C(=O)N3Cc3ccccc3)c(F)c2)cc1	·	3.1	-8.2	·	0.2	17	4.6
CCOc1ccc(-c2cc3nc(C4CCN(C(=O)OC(C)(C)C)CC4)c(C(=O)O)cn3n2)cc1	-2%&31%	-75	-3.1	0.65	-0.4	7	-1.9
Cc1cccc(Nc2nc(N)nc(CSC(=S)N3CCOCC3)n2)c1	16%	0.5	-1.8	0.72	0.3	-4	3.2
CCOC(=O)CSC1=N/C(=C\c2cc(OC)c(OC)c(OC)c2)C(=O)N1C	13%	-7.1	2.4	0.72	0.4	0	0.7
CC1CCCN(c2nc3ccccc3nc2C(C#N)S(=O)(=O)c2cccs2)C1 (stereo not drawn)	15%	-3.0	3.4	0.74	0.4	30	0.8
CCOC(=O)N1CCC(n2c(SCC(=O)NCCc3ccc(S(N)(=O)=O)cc3)nc3ccccc3c2=O)CC1	·	1.6	-8.6	0.69	-0.4	7	-3.2
COc1ccc(CNC(=O)COc2cccnc2[N+](=O)[O-])cc1OC	1%	3.1	-1.1	0.66	-0.5	1	0.6
Cc1cc(C)cc(-c2nnc(SCC(=O)N3CCN(C(=O)c4ccco4)CC3)o2)c1	-1%	4.3	3.2	0.67	0.0	-8	-2.5
O=C(NCCc1ccccc1)C(=O)NCC1CCCO1 (stereo not drawn)	0%	4.7	1.8	0.65	-0.1	-2	-2.6
COc1ccc(CCNS(=O)(=O)c2cccc3cccnc23)cc1OC	6%	2.6	4.0	0.71	0.2	-1	-3.8
CN(C)c1ccc(C(=O)NC2(N3CCC3=O)CCCC2)cc1	7%	-3.3	-1.0	0.72	0.1	-4	1.2
COc1cc(CNCCCN2CCOCC2)cc(Br)c1OCC(=O)N1CCCCC1	-2%	3.2	6.8	0.72	0.0	-5	0.4
CC1=CC(=O)[C@H]2C(C)(C)CCC[C@]2(C)[C@@]1(O)CO	?	-1.7	9.0	0.78	-0.7	14	1.1
COc1cccc(C(=O)COc2ccc3c(C)cc(=O)oc3c2)c1	-6%	-2.8	6.0	0.68	1.3	-9	0.9
Cc1cc(C)nc(NC(=O)C(C)N2C(=O)c3ccccc3C2=O)n1 (stereo not drawn)	32%	4.5	3.0	0.66	0.0	2	-3.4
O=C(NCCN1CCOCC1)C1CCN(S(=O)(=O)N2CCCC2)CC1	3%	0.5	-0.7	0.64	0.7	0	-0.5
CCn1c(=O)c(C(=O)NCc2cccnc2)c(O)c2ccccc21	-2%	-4.2	-2.8	0.7	0.9	-7	-1.0
Cc1nc2ccccc2nc1OCC(=O)Nc1ccc(F)cc1	-6%	-5.5	-2.3	0.7	0.4	1	2.1
CC(=O)c1cccc(N2C(=O)CC(N3CCN(S(=O)(=O)c4ccccc4F)CC3)C2=O)c1 (stereo not drawn)	-3%	0.2	-0.6	0.7	-0.9	4	1.8
COC(=O)C1(NC(=O)NC2CCCCC2)CCCCC1	6%	4.2	-8.2	0.73	0.3	-2	-3.4
CN(C)CC(O)COC(c1ccccc1)c1ccccc1 (stereo not drawn)	·	-0.1	-0.9	0.63	0.4	7	-6.5
O=C(N/N=C1\CCc2ccccc21)c1ccc(O)cc1	·	·	-3.6	·	-2.8	1	-1.7
Cc1ccc(Nc2nc(N)nc(CN3CCN(C(=O)c4ccco4)CC3)n2)cc1Cl	1%	2.1	-0.1	0.71	0.6	-6	9.7
CC(=O)c1c(C)oc2ccc(NS(=O)(=O)c3ccccc3)cc12	-1%	5.9	0.1	0.66	-0.4	-2	-0.8
